VDR inhibitor: inhibitors of human vitamin D receptor | P11473 | VDR-SRC2-3 peptide fluorescence polarization, 2 h | Potency, µM, for the others: max response, negative = inhibition, most hits filed as inhibitors | actives 0.93% (n = 400,000) | AID 504847; active = well fitted inhibition curve with a large enough effect; inconclusive = small, poorly fitted or top-dose-only effect, or another doubt; inactive = no such curve, though single readings can be large or run the other way; note: series mostly up to about 120 µM
Target sequence (P11473 whole entry, looked up): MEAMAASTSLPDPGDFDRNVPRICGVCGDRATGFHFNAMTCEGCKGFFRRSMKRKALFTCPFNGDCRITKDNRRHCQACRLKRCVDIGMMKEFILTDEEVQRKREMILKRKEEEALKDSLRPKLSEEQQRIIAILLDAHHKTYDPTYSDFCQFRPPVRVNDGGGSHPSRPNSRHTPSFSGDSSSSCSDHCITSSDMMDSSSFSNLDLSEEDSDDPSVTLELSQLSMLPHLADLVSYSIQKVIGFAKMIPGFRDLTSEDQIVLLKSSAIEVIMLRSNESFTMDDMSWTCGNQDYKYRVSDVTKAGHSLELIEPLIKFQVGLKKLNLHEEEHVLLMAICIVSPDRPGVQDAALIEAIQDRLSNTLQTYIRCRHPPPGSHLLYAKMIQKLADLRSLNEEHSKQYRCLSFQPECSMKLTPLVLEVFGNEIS
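Reagent solutions, kept cold and dark, are dispensed first; compounds are then pinned in at 23 nl, plates briefly spun, and incubated 2 h at ambient temperature. Inhibition of VDR–SRC2-3 peptide binding is read by fluorescence polarization.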
An asterisk follows results filed as active; u = inconclusive; & = joins results of further samples. % is set by controls: 0 for no effect and ±100 for the full control effect; potency is the fitted concentration of half-maximal effect.

Compound	VDR inhibitor
O=c1c(-c2cc(F)cc(F)c2)nc2cnc(Nc3ccccc3)nc2n1C[C@H]1CCCO1	7%
CCCCC(CC)C(=O)NCC(C)NC(=O)C(CC)CCCC (centres undefined)	5%
Cc1ccc(-n2nc(C(=O)Nc3ccc(C)c(F)c3)c(=O)n(C)c2=O)cc1	22%
COc1ccccc1CNC(=O)C/C(C)=N/NC(=O)COc1ccc(C)cc1Br	-15%
COc1ccc(NC(=O)CN(C)C(=O)C(C)Sc2ccccc2)cc1 (centres undefined)	-6%
CCN(CC(=O)NCc1ccccn1)S(=O)(=O)c1ccc(Cl)cc1	u
Cc1cc(N/N=C/c2ccccc2F)nc(NCc2ccccc2)n1	5%
Cc1nc(-c2ccc(S(=O)(=O)Oc3ccccc3Cl)s2)cs1	8%
O=C(O)c1ccccc1N=N/C(=N/Nc1cc(S(=O)(=O)O)ccc1O)c1ccccc1	-8%
COc1cc(OC)cc(C(=O)Nc2cc(-c3nc4ccccc4[nH]3)ccc2C)c1	19%
COC(=O)c1cc(S(=O)(=O)NCC2CCN(Cc3ccc(F)cc3)CC2)cn1C	20%&-4%
COc1ccc(OCc2nnc(SCc3ccc(C(=O)O)cc3)o2)cc1	-2%
CC(C)(C)C1CCC(=NNC(=O)CN(c2ccccc2)S(=O)(=O)c2ccccc2[N+](=O)[O-])CC1 (centres undefined)	8%
O=C(Cc1ccsc1)N1CCN(S(=O)(=O)c2cccc(F)c2)CC1	-2%
CCN(CCn1cccn1)Cc1c(C(=O)N2C[C@@H](C)O[C@@H](C)C2)nc2ccc(Cl)cn12	1%
CC1(C)C/C(=N\O)c2cc3c(nc2C1)CCCC3	7%
COc1ccc(NS(=O)(=O)CC23CCC(CC2=O)C3(C)C)cc1 (centres undefined)	1%
CN(Cc1ccccc1)c1ncnc(N)c1[N+](=O)[O-]	-12%
O=C1CC(O)(c2ccccc2)C(c2ccccc2)=C1c1ccccc1 (centres undefined)	2%
CC1CC2C3CCC4=CC(=O)C=C[C@@]4(C)[C@]3(F)C(O)C[C@]2(C)[C@]1(O)C(=O)COP(=O)(O)O (some centres undefined)	-3%
COc1cc(C2C(C(=O)c3ccc(C)o3)=C(O)C(=O)N2c2cc(C)on2)cc(OC)c1OC (centres undefined)	1%
COc1ccc(NC2CC(=O)N(CCc3ccccc3)C2=O)cc1 (centres undefined)	5%
COc1cc(OC)cc(C(=O)NCC(c2cccs2)S(=O)(=O)c2ccc(F)c(C)c2)c1 (centres undefined)	4%
O=C(Nc1ccc(O)c2c(=O)cc(-c3ccccc3Cl)oc12)c1cccs1	0%&-21%
COc1ccccc1CNC(=O)c1ccc2ccccc2n1	-15%
COc1ccc2[nH]c(=O)c(CN(C(=O)c3ccccn3)C3CCCCC3)cc2c1	-12%
O=C(CN1C(=O)c2cccnc2Oc2ccc(Cl)cc21)N1CCCCCC1	5%
Cc1sc2ncnc(N3CCC(C(=O)Nc4ccc(Cl)c(Cl)c4)CC3)c2c1C	-9%
COc1ccc(-c2csc(NC(=O)CSc3nc4ccccc4c(=O)[nH]3)n2)cc1	10%
O=C(O)c1ccc(COc2ccccc2/C=C2\NC(=O)N(Cc3ccccc3)C2=O)cc1	-16%
O=C(CCc1ccccc1)NNC(=O)Cc1ccccc1	13%
Cc1ccc2[nH]c(=O)c(CN(Cc3ccc4c(c3)OCO4)Cc3nnnn3C3CCCC3)cc2c1	2%
CCS(=O)(=O)NCCCCc1ccccc1	12%
COC(=O)Nc1nnc(-c2ccco2)s1	-1%
COc1cc(OC)c(C(=O)OCC(=O)NCC2CCCCC2)cc1OC	4%
Cc1nn(-c2ccccc2)c2c1N(CCCC(=O)NCc1ccc(OC(C)C)cc1)C(=O)CS2	13%
Cc1ccccc1-c1ccc(CN2CCN(C)C(CCO)C2)cc1 (centres undefined)	-10%
COc1cc(SC)ccc1C(=O)NCCOc1ccc(Cl)cc1	10%
COc1cc(NC(=O)CSc2nc3c(c(=O)[nH]2)CCCC3)cc(OC)c1OC	-8%
CCOC(=O)c1c(NC(=O)CCCN2CCOCC2)sc2c1CC(C)(C)OC2	1%
Cc1cc(C)cc(NC(=O)Cc2ccc(NC3=NC4CS(=O)(=O)CC4S3)cc2)c1 (centres undefined)	4%
CNc1nc(SC)nc(N2CCOCC2)n1	-1%
COc1ccc(/C(C)=N/NC(=O)c2ccccc2N)cc1	-2%
COc1ccc(/C(O)=C2/C(=O)C(=O)N(c3ccccn3)C2c2ccc(C(C)C)cc2)cc1 (centres undefined)	-24%
CC(C)C(=O)N(c1ccc(F)cc1)C1C=CS(=O)(=O)C1 (centres undefined)	5%
COc1ccc(NC(=O)Cn2c(=O)n(CC3CCCO3)c(=O)c3cc(OC)c(OC)cc32)c(OC)c1 (centres undefined)	-16%
CCOc1cc(C)c(C(C)C)cc1S(=O)(=O)n1ccc(C)n1	-6%
Cc1ccc(Nc2ccc(N)cc2S(=O)(=O)O)cc1	-30%
O=C(O)CNC(=O)CCCn1nnc2ccccc2c1=O	12%
COc1ccc(CCC2(C)OCC(CCCCO)O2)cc1 (centres undefined)	-6%

More entries follow:
Compound	VDR inhibitor
C=CCc1c(C)nc2nc(SCC(=O)Nc3cccc(Cl)c3)nn2c1C	2%
O=C(Nc1ncnc2sc3c(c12)CCCCC3)c1ccco1	4%
C=Cc1ccc(Cn2c(C(=O)O)c(CNCc3ccccc3)c3ccc(C)cc32)cc1	6%
CCOc1ccc(CCNC(=O)C2CCCN(c3nn4c(=O)cc(C)nc4s3)C2)cc1 (centres undefined)	7%
CN1CCN(C(=O)NCC23CC4CC(CC(C4)C2)C3)CC1	-7%
COc1ccc(C(=O)NCc2ccc(C(=O)NCC(OC)OC)cc2)cc1OC	-3%
C[C@@H]1[C@H](C)CC[C@@]2(C(=O)O)CC[C@]3(C)C(=CC[C@H]4[C@@]5(C)CC[C@@H](O)C(C)(C)[C@@H]5CC[C@@]43C)[C@@H]12	-4%
CC(C)(C)C(=O)Nc1ccc(C(=O)NNC(=O)Cc2ccccc2)cc1	-13%
c1ccc(-n2nnnc2NCCCN2CCOCC2)cc1	-11%
CC1=Nc2cc(C(=O)NC3CCCCC3)ccc2Sc2ccc(Cl)cc21	1%

Given as labelled records: three of the compounds above.
O=C(Nc1ncnc2sc3c(c12)CCCCC3)c1ccco1
  VDR inhibitor: 4%

COc1ccc(NC2CC(=O)N(CCc3ccccc3)C2=O)cc1 (centres undefined)
  VDR inhibitor: 5%

O=C(CN1C(=O)c2cccnc2Oc2ccc(Cl)cc21)N1CCCCCC1
  VDR inhibitor: 5%

The main list resumes, starting four compounds before the break.
Compound	VDR inhibitor
C[C@@H]1[C@H](C)CC[C@@]2(C(=O)O)CC[C@]3(C)C(=CC[C@H]4[C@@]5(C)CC[C@@H](O)C(C)(C)[C@@H]5CC[C@@]43C)[C@@H]12	-4%
CC(C)(C)C(=O)Nc1ccc(C(=O)NNC(=O)Cc2ccccc2)cc1	-13%
c1ccc(-n2nnnc2NCCCN2CCOCC2)cc1	-11%
CC1=Nc2cc(C(=O)NC3CCCCC3)ccc2Sc2ccc(Cl)cc21	1%
O=C(O)COc1cccc2ccccc12	9%
Cc1cc(C(=O)COC(=O)c2ccc(O)cc2)c(C)n1CC1CCCO1 (centres undefined)	-10%
CCOC(=O)N1CCN(S(=O)(=O)N2CCCC(C(=O)NCc3cc(OC)ccc3OC)C2)CC1 (centres undefined)	-14%
O=C(COc1ccccc1[N+](=O)[O-])Nc1ccc(NC(=O)c2cc3ccccc3o2)cc1	-7%
CC1=C(C(=O)Nc2ccc(Cl)cc2)C(C(C)C)n2nc(SCc3cccc(C)c3)nc2N1 (centres undefined)	u
O=C(N/N=C/c1c(O)ccc2ccccc12)Nc1ccccc1	-15%
O=C1Cc2ccccc2C(=O)N1c1cccc(Cl)c1	1%
Cc1noc(C)c1S(=O)(=O)N1CCCC1C(=O)NC(C)(C)C (centres undefined)	-9%
CCOc1ncccc1C(=O)Nc1ccc2c(C)cc(=O)oc2c1	-13%
Cc1cc(C(=O)Nn2c(C3CCCCC3)nc3ccccc3c2=O)ccc1[N+](=O)[O-]	-3%
COc1ccc(NC(=O)c2cc(S(=O)(=O)N(C)C)ccc2N2CCCC2)cc1Cl	-3%
O=C(O)COCC(=O)NCc1csc2ccc(Cl)cc12	-11%
c1ccc(-c2nnc(CSc3nnc(-c4cccs4)o3)o2)cc1	-15%
O=C(NCc1cccnc1)c1ccc(CS(=O)(=O)Cc2ccc(Cl)cc2)o1	9%
O=C(c1ccc2ccccc2c1)N1CCCCC1	13%
COc1ccc(C(=O)OC(C)C(=O)NC(C)CCc2ccccc2)c(OC)c1 (centres undefined)	-1%
CSc1ccc(S(=O)(=O)Nc2ccc(N3CCOCC3)c(Cl)c2)cc1	-2%
CSc1ncc(Cl)c(C(=O)N(C)c2ccccc2)n1	20%
Cc1cccnc1NC(=O)COc1ccc2oc3c(c2c1)CCCC3	4%
CCC(=O)N1CCCc2ccccc21	-19%
O=C(NC1CCS(=O)(=O)C1)Oc1ccc(Cl)cc1 (centres undefined)	3%
COc1cc(CNc2ccc3[nH]c(=O)[nH]c3c2)ccc1OCc1c(F)cccc1Cl	-10%
O=S(=O)(NCCN1CCN(S(=O)(=O)c2ccccc2F)CC1)c1ccccc1F	2%
O=S(=O)(c1ccc2c(c1)CCC2)N1CCN(c2nc(-c3ccccc3)nc3ccccc23)CC1	1%
COc1cc(NC(=O)c2cc3c(s2)-c2ccccc2OC3)cc(OC)c1OC	4%
C/C=C(/C)C(=O)OC1C(OC(C)=O)[C@@]2(CO)C(O)C[C@@]3(C)C(=CCC4[C@@]5(C)CCC(OC6OC(C(=O)O)[C@@H](O[C@@H]7OC(CO)C(O)C(O)C7O)C(O)[C@H]6O[C@@H]6OC(CO)C(O)C(O)C6O)[C@](C)(CO)C5CC[C@@]43C)C2CC1(C)C (some centres undefined)	u
Cc1ccc(/C=N/NC(=O)CN2C(=O)CSc3ccccc32)o1	-9%
CN(CC(=O)Nc1ccccc1Cl)C(=O)C1CCN(S(=O)(=O)c2ccc3c(c2)OCCO3)CC1	-25%
Cn1c(=O)c(=O)n(C)c2cc(S(=O)(=O)CCC(=O)Nc3ccc(F)cc3)ccc21	-3%&5%
COc1cc(C(=O)Nc2cccc(S(=O)(=O)NCc3ccco3)c2)cc(OC)c1OC	-8%
Cc1ccsc1CNC12CC3CC(CC(C3)C1)C2	9%
COC(=O)Cc1csc(Nc2ccc(F)c(Cl)c2)n1	4%
CCOC(=O)CSc1nnc(CNc2cccc(Cl)c2)n1C	14%
O=C1/C(=C/c2ccccn2)SC(=S)N1CCc1ccccc1	-4%
O=C(O)c1cccc(S(=O)(=O)Nc2ccc3c(c2)CCC3)c1	4%
O=C(Nc1nc2ccccc2n1Cc1ccccc1)c1ccc(COc2ccccc2[N+](=O)[O-])o1	20%
COc1ccc([N+](=O)[O-])cc1/C=N/Nc1nn[nH]n1	2%
CCn1c(C(=O)N2CCC(C(=O)NCCCSC3CCCCC3)CC2)cc2sccc21	-3%
COc1cc(CNc2cccc3[nH]c(C(F)(F)F)nc23)cc(OC)c1	u
O=C(Cn1cc2c(n1)CCCC2)NC1CCCCCC1	-17%
CCCCc1ccc(NC(=O)CC(C)C)cc1	-22%
CN(CC(=O)N1CCCCC1)S(=O)(=O)c1cccc2nsnc12	-3%
Cc1ccccc1NC(=O)C(C)n1c2ccccc2c2nc(=O)cc(C)n21 (centres undefined)	-2%
CC12CCC(C(=O)Nc3ccccc3Cl)(C(Br)C1=O)C2(C)C (centres undefined)	1%
CCC(C(=O)OCC(=O)N1C(C)CCCC1C)c1ccccc1 (centres undefined)	-12%
CCOC(=O)CSc1c(-c2cccs2)[nH]c2ccccc12	u
O=C(Cn1c(NCCCCl)nc2ccccc21)c1ccccc1	-10%
Cc1c(NC(=O)CN2CCN(C(c3ccccc3)c3ccccc3)CC2)c(=O)n(-c2ccccc2)n1C	3%
CSc1ccc(CNC(=O)CCn2ccc3cc(S(=O)(=O)N4CCC(C)CC4)ccc32)cc1	0%
CCc1ccccc1NC(=O)CCN1C(=O)C2C3CCC(C3)C2C1=O (centres undefined)	-20%

More compounds.
Compound	VDR inhibitor
Cc1cc([N+](=O)[O-])ccc1NC(=O)COc1nsnc1N1CCOCC1	-2%
COc1cc(NC(=O)CN(C)S(=O)(=O)c2ccc(C)cc2)cc(OC)c1	14%
Nn1c(SCC(=O)Nc2ccc3c(c2)OCCO3)nnc1-c1ccncc1	-6%
CC(=O)Nc1ccc(SCC(=O)NCCc2ccc(F)cc2)cc1	-17%
Cc1nn(-c2ccccc2)c(C)c1C1C(C#N)=C(N)Oc2n[nH]c(C)c21 (centres undefined)	7%
CC(=O)c1ccc(NC(=O)CNCC(c2ccccc2)N(C)C)cc1 (centres undefined)	u
Cc1cc(C)c(C2C(C#N)=C(N)Oc3n[nH]c(C)c32)cc1CN1CCCC1 (centres undefined)	9%
Cc1nc2cc(NCc3ccccc3O)ccc2n1Cc1ccccc1	u
COc1ccc(OC)c(/C=C/C(=O)OCC(=O)N2C(C)CCCC2C)c1 (centres undefined)	-15%
O=C(c1nc2ccc(Cl)cn2c1CNCCc1cnccn1)N1CCCCCCC1	7%
O=S(=O)(Nc1ncccn1)c1ccc(NC(=S)Nc2ccc(Cl)cc2)cc1	-5%
COC(=O)Cn1cc(/C=C/c2cc[n+](C)cc2)c2ccccc21	-12%
CCOC(=O)N1CCN(C(=S)NC(C)(C)C)CC1	7%

From PubChem

The list is partial (hit frequency here may not be typical).
